MLL AF4-AF9 inh: inhibitors of AF4 peptide binding to AF9, primary screen, biochemical, AlphaScreen, biotin-AF4 peptide, FLAG-AF9, single point. Protein AF-9 (Homo sapiens), P42568. inhibition, % at 10 µM. 350,000 tested, 0.47% active;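 active = every replicate reaching a set inhibition limit, whatever the replicate mean, cut at about 25% in these data; inconclusive = mean inhibition reaches that limit but some replicates miss it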;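 note: 0% = plate neutral control median and 100% = total signal loss; the record names both 10 and 1 µM as test concentration; the first replicate is given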
Target sequence (P42568 whole entry, looked up): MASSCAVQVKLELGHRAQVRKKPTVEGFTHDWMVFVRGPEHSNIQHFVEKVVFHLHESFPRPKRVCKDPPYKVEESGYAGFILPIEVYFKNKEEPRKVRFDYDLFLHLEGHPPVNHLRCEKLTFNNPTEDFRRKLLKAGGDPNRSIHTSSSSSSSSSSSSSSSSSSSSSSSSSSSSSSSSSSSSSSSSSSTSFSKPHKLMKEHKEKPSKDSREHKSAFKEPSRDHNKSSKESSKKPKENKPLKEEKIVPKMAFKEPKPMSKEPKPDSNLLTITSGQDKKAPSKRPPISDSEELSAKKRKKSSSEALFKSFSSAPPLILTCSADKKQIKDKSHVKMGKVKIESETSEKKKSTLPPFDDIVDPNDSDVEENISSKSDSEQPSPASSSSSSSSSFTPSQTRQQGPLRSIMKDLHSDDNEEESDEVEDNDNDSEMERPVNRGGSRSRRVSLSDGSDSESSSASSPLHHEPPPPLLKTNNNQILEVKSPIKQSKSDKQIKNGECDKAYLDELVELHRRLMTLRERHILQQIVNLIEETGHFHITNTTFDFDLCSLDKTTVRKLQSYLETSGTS
Vif TR-FRET: inhibitors of Vif binding to APOBEC3G peptide, primary screen, biochemical, TR-FRET, GST-Vif 1-94, biotin-A3G peptide, dose response retest (AID 1117319). Virion infectivity factor (Human immunodeficiency virus type 1 group M subtype B (isolate …. TR-FRET GST-Vif / biotin-A3G peptide binding; higher % means a stronger effect; test concentration not given here; strong numbers were not always called active. one-dose inhibition, %; IC50 in µM for titrated hits. 260,000 tested, 0.57% active;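 active = above the screen mean plus three standard deviations and confirmed in dose response; inconclusive = results disagree or hit not tested in dose response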;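 note: Vif residues 1-94 fused to GST binding biotinylated APOBEC3G peptide 110-148; 0% = full assay without inhibitor and 100% = GST in place of GST-Vif; retest series ran down from 100 µM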
An asterisk follows results filed as active; ? = inconclusive; & = joins results of further samples. An excerpt. The share of hits here may be higher or lower than overall.

SMILES	MLL AF4-AF9 inh	Vif TR-FRET
Clc1ccccc1NN=Cc1ccccn1	1.1	1%
COc1ccc(NC(=O)N(C)C[C@H]2Oc3cc(Br)ccc3S(=O)(=O)N([C@H](C)CO)C[C@@H]2C)cc1	-0.7&-1.2	2%
CC1C(=O)N(Cc2cn(Cc3ccco3)nn2)CCS(=O)(=O)N1Cc1ccc(-c2ccc(Cl)c(Cl)c2)cc1 (centres undefined)	1.1	14%
CCOc1ccc(CCN2C(=O)C(=O)N([C@@H](CC(C)C)CN3CCC[C@@H]3CN3C(=O)C(=O)NC[C@@H]3Cc3ccccc3)C[C@@H]2CC(C)C)cc1	3.6	5%
CC1CCN(C(=O)COC(=O)C2CCN(S(=O)(=O)c3c(Cl)cccc3Cl)CC2)CC1	-0.1	-3%
Cc1cccc(N2CCN(C(=O)CN3C(=O)NC4(CCCCCC4)C3=O)CC2)c1C	1.8	9%
CN(C1=NS(=O)(=O)N=C(N(C)c2ccccc2)O1)c1ccccc1	-0.6	6%
CCC1([N+](=O)[O-])COC(c2ccc(C)cc2)OC1 (centres undefined)	3.7	7%
CN(C)Cc1cc(C(F)(F)F)ccc1C(O)(c1ccccc1)c1ccccc1	5.5	-6%
O=C1C(=O)c2c(ccc3ccccc23)-c2ccccc21	-7.6	-6%
CCOC(=O)c1cc(C)nnc1C(=O)OCC	-2.0	20%
Cc1cc(S(=O)(=O)NC[C@H]2O[C@@H](n3ccc(N)nc3=O)[C@H](O)[C@@H]2O)c(C)s1	-3.9	1%
COc1ccc([N+](=O)[O-])cc1NC(=O)COC(=O)C12CC3CC(CC(O)(C3)C1)C2	-1.6	7%
C[C@H]1CN([C@@H](C)CO)S(=O)(=O)c2ccc(Br)cc2O[C@H]1CN(C)S(=O)(=O)c1ccccc1F	-0.8&-0.4	7%
O=C(OCCc1ccccn1)c1cccc([N+](=O)[O-])c1	0.1	-4%
CCC(C(N)=O)N1C(=O)C2C3CCC(C3)C2C1=O (centres undefined)	0.5	-12%
CCOc1ccc(S(=O)(=O)Nc2cccc(C(=O)N3CCN(c4ccccn4)CC3)c2)cc1	-3.4	-4%
O=C(CN1CCN(S(=O)(=O)c2cccc(Cl)c2)CC1)NCC1(N2CCOCC2)CCCCC1	0.2	-10%
CN(CCc1ccccc1)C(=O)c1ccc(NC(=O)Cc2ccc(NC(=O)C3CCCN(C(=O)C4CCC4)C3)cc2)cc1 (centres undefined)	1.2	1%
N#CCCN(C(=O)CSc1nnc(-c2ccncc2)n1C1CC1)c1ccccc1	-2.6	-15%
Cc1onc(-c2ccccc2Cl)c1C(=O)O/N=C(\N)c1cccc([N+](=O)[O-])c1	7.1	-2%
Cn1ccn(CCCCCCn2ccn(C)c2=S)c1=S	-2.5	-4%
O=C1NCCN(CC2CCN(CCC3CCCC3)CC2)C1=O	0.2	-4%
Cc1cccc(S(=O)C(c2ccccc2)c2ccccc2)c1 (centres undefined)	-2.4	-12%
CCn1nc(C(=O)Nc2ccc(Cl)c(S(=O)(=O)N3CCOCC3)c2)c2ccccc2c1=O	4.3	-12%
COc1ccc(N2C(=O)[C@H]3CCC=C[C@H]3[C@@H]2c2ccccc2Br)cc1	-1.0	-2%
Nc1cc(N)c2c(c1)C(=O)c1ccccc1-2	12	-9%
CN1CCN(C(=O)c2ccc(S(=O)(=O)N(C)c3ccccc3)cc2)CC1	-0.8	1%
CSc1nc(N)c2cn[nH]c2n1	-3.1	0%
CCCc1ccc(S(=O)(=O)N2CCN(C(=O)c3cc(C)on3)CC2)cc1	2.8	-4%
Cc1cc(S(=O)(=O)Nc2ncnc3sccc23)ccc1F	-4.9	1%
COc1ccc([N+](=O)[O-])c(O)c1C(C)=O	-0.4	0%
NC(=O)C1(NC2CCCCC2)CCN(Cc2ccccc2)CC1	1.0	-3%
CC1C(C)N(C(=O)CCCl)c2ccccc2N1C(=O)CCCl (centres undefined)	-0.3	-6%
Cc1ccc(NC(=O)CN(C)C(=O)COc2ccc(Br)cc2)cc1	-4.2	1%
C[C@@H]1CN([C@H](C)CO)S(=O)(=O)c2ccc(C#Cc3ccccc3)cc2O[C@H]1CN(C)C(=O)Nc1ccc2c(c1)OCO2	1.1&-26&-20	-3%
COC(=O)[C@H]1C[C@H](OC(=O)NC2CCCC2)[C@@]2(O)CN(S(=O)(=O)c3ccc(C)cc3)CC2[C@H]1C(=O)OC (some centres undefined)	-1.2	-2%
COc1ccc2c(c1)c([C@@H]1[C@H](C)[C@H]3CCCC[C@H]3CN1S(=O)(=O)c1ccc(C)cc1)cn2C	-2.0	1%
CCCCOC(=O)c1ccc(NC(=O)COC(=O)C2CC2C)cc1 (centres undefined)	-5.1	1%
Nc1nc2ccc(Cl)cc2o1	-31	6%
CCOC(=O)c1[nH]c(=S)n(Cc2ccccc2)c1C(=O)OCC	-8.3	-33%
COc1ccccc1C(=O)NCC(=O)OCc1nnc(-c2ccccc2)o1	-3.1	-6%
Nc1ccc2c(Cl)cc(Cl)cc2c1	1.4	-1%
CC(CNC(=O)Cn1cnc2c(NCc3ccccc3)ncnc21)c1ccccc1 (centres undefined)	-1.2	-1%
O=C1C=CC(=O)C(CNc2ccc(C(=O)OCc3ccccc3)cc2)=C1	3.4	12%
CCCCOCCOC(=O)C1OC1(C)c1ccccc1 (centres undefined)	1.3	2%
CCOC(=O)c1ccc(-c2ccc(-c3cc(=O)oc4cc(OC)c(OC)c(OC)c34)cc2)cc1	-1.9	3%
O=C(c1cc(C2CC2)nn1-c1ccccc1)N1CCN(c2ccccn2)CC1	-3.6	8%
C[C@@H]1CN([C@H](C)CO)C(=O)CCCn2cc(nn2)CO[C@H]1CN(C)C(=O)Nc1ccc2c(c1)OCCO2	0.0&-2.6&1.7	-1%
CN(C)C(=O)CCc1ccc2c3c([nH]c2c1)[C@]1(CCC2CCCC2)[C@@H](C(=O)N2CCOCC2)C[C@H](CC(=O)NCc2cccc(C(F)(F)F)c2)C(=O)N1CC3	0.8	4%
CN(C(=O)c1cccc(NC(=O)Cc2cccc(NC(=O)C3CCCN(C(=O)C4CCCC4)C3)c2)c1)C1CCC1 (centres undefined)	-3.6	-4%
C[C@]12c3[nH]c4ccc(Cl)cc4c3CCN1C(=O)[C@@H](CC(=O)NCCC1=CCCCC1)C[C@@H]2C(=O)N1CCCCC1	0.3	-5%
COc1ccc(C)cc1NC(=O)Cc1csc(NC(=O)Nc2ccccc2OC)n1	0.5	-9%
CCN(CC)c1ccc(C(NC(=O)C(C)C)c2ccc3cccnc3c2O)cc1 (centres undefined)	29*	18%
COc1ccc2oc(N)nc2c1	-1.3	1%
CCCC(=O)NC1CCc2cc(OC)c(OC)c(OC)c2-c2ccc(OC)c(=O)cc21 (centres undefined)	-7.3	3%
CC(C)(COC(=O)C(c1ccccc1)c1ccccc1)CN1CCOCC1	-4.5	-13%
Cc1ccc(S(=O)(=O)N2CCCCC2)cc1NC(=O)c1cnccn1	1.7	-2%
O=C(COc1ccc(S(=O)(=O)N2CCOCC2)cc1)NCCc1ccc(Cl)cc1	-0.4	7%
Cc1cc(Cl)c2oc(C(=O)N3CCN(c4cnccn4)CC3)c(C)c2c1	3.1	2%

By substructure: the entries above containing a nitro group on carbon (five)
SMILES	MLL AF4-AF9 inh	Vif TR-FRET
CCC1([N+](=O)[O-])COC(c2ccc(C)cc2)OC1 (centres undefined)	3.7	7%
COc1ccc([N+](=O)[O-])cc1NC(=O)COC(=O)C12CC3CC(CC(O)(C3)C1)C2	-1.6	7%
O=C(OCCc1ccccn1)c1cccc([N+](=O)[O-])c1	0.1	-4%
Cc1onc(-c2ccccc2Cl)c1C(=O)O/N=C(\N)c1cccc([N+](=O)[O-])c1	7.1	-2%
COc1ccc([N+](=O)[O-])c(O)c1C(C)=O	-0.4	0%

Other entries follow.
SMILES	MLL AF4-AF9 inh	Vif TR-FRET
C[C@@H]1CN([C@H](C)CO)C(=O)c2cc(C#Cc3ccccc3F)cnc2O[C@@H]1CN(C)S(=O)(=O)c1ccccc1F	1.6&-1.0&-1.4	-3%
Nc1cc(OCc2ccccc2)ccc1OCc1ccccc1	1.1	2%
CCOC(=O)C1=CN(Cc2ccco2)S(=O)(=O)N(C)C1c1ccc(C(F)(F)F)cc1 (centres undefined)	0.1	2%
O=C(NC[C@@H]1CC[C@@H](Cc2ccc(-c3ccccc3)cc2)O1)Nc1ccc(Br)cc1	0.4	-1%
COc1ccccc1C1SCCN1S(=O)(=O)c1ccccc1 (centres undefined)	-1.1	2%
O=C(c1cc(-c2cccs2)nc2ccccc12)N1CCN(CCO)CC1	-24	3%
CN1C[C@H]2CON(C)[C@H]2C[C@H]1c1cccc(-c2ccc(C#N)cc2)c1	0.0	4%
COCCn1c(SCC(=O)NC2CCCC2)nc2ccccc2c1=O	0.1	-1%
c1ccc(NN=C2c3ccccc3-c3ccccc32)cc1	3.7	-2%
O=C(OCc1cn([C@@H]2C[C@H](c3ccccc3)N(C(=O)c3cccs3)C[C@H]2O)nn1)c1ccccc1	-1.6	-1%
CC(C)CC1NC(=O)N(CC(=O)Nc2ccc(OCc3ccccc3)cc2)C1=O (centres undefined)	-1.5	-4%
CN(C)S(=O)(=O)c1ccccc1N=C=S	-1.6	26%
Cc1cc(CNC[C@H]2O[C@@H](n3cnc4c(N)ncnc43)[C@H](O)[C@@H]2O)no1	0.0	-2%
COc1ccc(NC(=O)Nc2ccc3c(c2)C(=O)N([C@H](C)CO)C[C@H](C)[C@H](CN(C)Cc2ccc(C(=O)O)cc2)OCCCC[C@@H](C)O3)cc1	-1.6&-2.7	-3%
CCN(CC)C(=O)C1=C(C)N(Cc2ccccc2)C(=O)C(CC(=O)NCc2cccs2)C1 (centres undefined)	-0.1	1%
O=C(NC1CCCc2ccccc21)c1cccc(F)c1 (centres undefined)	-7.7	2%
CCOC(=O)C1(C(N)=O)OC1(c1ccc(Cl)cc1)c1ccccc1Cl (centres undefined)	3.7	-3%
C[C@H](CO)N1C[C@H](C)[C@H](CN(C)C(=O)c2ccccc2)OCc2cnnn2CCCC1=O	0.3&-0.4&1.0	-9%
CC[C@]12c3[nH]c4ccc(OC)cc4c3CCN1C(=O)C(CC(=O)NC/C=C(\C)CCC=C(C)C)C[C@@H]2C(=O)N1CCN(C(=O)c2ccco2)CC1 (some centres undefined)	4.9	1%
CC1=C(O)C(=O)C(c2c(C)cc(C)c(Br)c2C)=C(O)C1=O	-4.2	17%
O=S(=O)(/C=C/C=C/S(=O)(=O)c1ccccc1)c1ccccc1	-6.4	5%
O=C(O)c1c[nH]n2c(=S)ncnc12	-0.2	-3%
O=C(COC(=O)C1CCN(c2ccc(C(F)(F)F)cn2)CC1)NCc1cccc(Cl)c1	-2.4	4%
Cc1ccc2[nH]c(O)c(N=Nc3ccccc3[N+](=O)[O-])c2c1	0.7	-10%
Cc1ccc(C(C)C)c2c1C(c1ccc3c(c1)OCO3)CC(=O)O2 (centres undefined)	-2.6	5%
Cc1cc(C(=O)Nc2cccc3ccccc23)oc1C	-0.2	-4%
Cc1ccc(-c2cccc([C@H]3[C@@H]4C=CC[C@@H](C)[C@@H]4C(=O)N3Cc3ccccc3)c2)cc1	-1.8	0%
CN(Cc1ccccc1)C(=O)c1ccc(NC(=O)Cc2ccc(NC(=O)C3CCCN(C(=O)C4CC4)C3)cc2)cc1 (centres undefined)	2.1	-7%
C=CCn1c(=O)/c(=C/c2ccc(Cl)cc2)s/c1=C(\C#N)c1nnc2n1CCCCC2	?	-7%
O=C(c1ccc[nH]1)N1O[C@@H]2C=C[C@H]1C2	-1.6	-1%
Cc1cc(C)cc(OCC(=O)N(C)CC(=O)Nc2ccc(N3CCOCC3)cc2)c1	-1.5	-4%
COc1cccc(C(=Cc2ccc([N+](=O)[O-])cc2)C(=O)O)c1	-0.8	-6%
CC1(C)CC(=O)C=C(c2ccc(-c3ccccc3)cc2)C1=O	0.1	9%
CCN(C(=O)COC(=O)c1c(C)nn(-c2ccccc2)c1Cl)c1c(N)n(Cc2ccccc2)c(=O)[nH]c1=O	1.3	-1%
Cc1cccc(C)c1NC(=O)CN1CCN(C(=O)c2cc(C3CC3)nn2-c2ccccc2)CC1	-2.4	-2%
Cc1ccc2c(=O)n3c(nc2c1)C(Cc1ccc(O)cc1)NC(=O)c1cccnc1-3 (centres undefined)	1.0	3%
COc1ccc2sc(-c3ccccc3OC)c(-c3ccc(OCCN(C)C)cc3)c2c1	22	-42%
COc1cccc(C(=O)O)c1OS(=O)(=O)c1ccc(C)cc1	-2.9	-1%
Cc1ccccc1-c1ccc2c(c1)O[C@H](CN(C)C(=O)C1CC1)[C@@H](C)CN([C@@H](C)CO)S2(=O)=O	4.6&2.5&3.2	2%
Cc1ccc(S(=O)(=O)N2[C@@H](c3ccc4c(c3)OCO4)C(C(=O)O)=C[C@H]2CC2CCCC2)cc1	-2.3	0%

Copied from the list.
MLL AF4-AF9 inh result of Cc1ccc2[nH]c(O)c(N=Nc3ccccc3[N+](=O)[O-])c2c1 : 0.7
MLL AF4-AF9 inh result of O=C(O)c1c[nH]n2c(=S)ncnc12 : -0.2
Vif TR-FRET result of O=C(COC(=O)C1CCN(c2ccc(C(F)(F)F)cn2)CC1)NCc1cccc(Cl)c1 : 4%
Vif TR-FRET result of COc1ccc2sc(-c3ccccc3OC)c(-c3ccc(OCCN(C)C)cc3)c2c1 : -42%
Vif TR-FRET result of Cc1cc(C(=O)Nc2cccc3ccccc23)oc1C : -4%

Source: PubChem BioAssay
